Screening data from PubChem.
TRPV1 potentiator: enhances activation of the human vanilloid receptor TRPV1 | Q8NER1 | TRPV1-expressing cells, Fluo-8 calcium influx, capsaicin EC20 potentiation; host cell line not named in the record; control for the full effect not named in the record | potentiation, % at 8.33 µM | 320,000 tested, 0.02% active; active means potentiation above 80%; inconclusive means 30% to 80%; inactive means below 30%; also: 0% is about no effect
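TRPV1-expressing cells were cultured overnight at 35.5C and loaded with Fluo-8 calcium dye for 40 to 90 min at room temperature. After a 10 s baseline, compound was added and calcium influx was read kinetically for 3 min (ex 480/em 520 nm).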
D2 PAM: potentiates the human D2 dopamine receptor allosterically; P14416; DiscoveRx D2 beta-arrestin cells, luminescence, 90 min; 100% = 57 uM dopamine signal; potentiation, % (concentration not given with the values); 360,000 tested, 0.23% active; AID 624464; active = potentiation of 50% or more; inconclusive = 30% to 50%; inactive = 30% or less;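 also: compound concentration not given in the record; tested on top of an EC20 dose of dopamine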
Target sequence (P14416 whole entry, looked up): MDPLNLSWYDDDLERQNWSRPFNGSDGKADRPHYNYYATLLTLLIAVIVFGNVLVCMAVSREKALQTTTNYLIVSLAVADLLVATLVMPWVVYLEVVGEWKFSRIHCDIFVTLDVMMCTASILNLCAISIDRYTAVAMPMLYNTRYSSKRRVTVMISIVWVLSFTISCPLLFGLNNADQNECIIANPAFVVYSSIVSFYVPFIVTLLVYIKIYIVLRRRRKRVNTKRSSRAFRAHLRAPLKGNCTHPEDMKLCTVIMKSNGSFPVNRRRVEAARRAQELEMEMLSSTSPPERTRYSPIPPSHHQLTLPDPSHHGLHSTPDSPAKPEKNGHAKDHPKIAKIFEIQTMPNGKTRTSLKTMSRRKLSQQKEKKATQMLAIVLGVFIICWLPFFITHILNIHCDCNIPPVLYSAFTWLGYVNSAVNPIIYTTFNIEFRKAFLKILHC
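D2 cells co-treated with compound plus 50 nM dopamine (EC20) for 90 min at 37 deg C to detect potentiation. Beta-arrestin recruitment was read as enzyme-fragment luminescence after 1 h at ambient temperature. Full response was set by 57 uM dopamine.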
CtBP-E1A blk: blocks the CtBP interaction with E1A | 340,000 tested, 0.49% active | AlphaScreen GST-E1A/His-CtBP binding, 1536-well; active compounds read low; control for the full effect not named in the record | activity change, % (no concentration beside the values) | AID 651724; in the data active means activity change below about -65%; inconclusive means about -30% to -65%; inactive means above about -30%; also: % is scaled to controls: 0 for no effect and ±100 for the full control effect
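Homogeneous bead-based format: GST-tagged E1A captured on glutathione donor beads, His-tagged CtBP on nickel acceptor beads; compounds precede bead addition by 2 h at 37 °C.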
TRPML1 blocker: blocks the human TRPML1 channel; 390,000 tested, 0.02% active; TRPML1-inducible cells, Ca2+ dye fluorescence, FDSS; active compounds read low; inhibition of EC80 agonist-evoked calcium signal; Q9GZU1; activity change, negative = inhibition, % (concentration not given with the values); in the data active means activity change below about -50%; inconclusive means about -30% to -50%; inactive means above about -30%;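 also: stimulus is agonist 54-4 at its EC80 concentration; % is scaled to controls: 0 for no effect and ±100 for the full control effect; the text of the record puts the active cut at -80%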
Target sequence (Q9GZU1 whole entry, looked up): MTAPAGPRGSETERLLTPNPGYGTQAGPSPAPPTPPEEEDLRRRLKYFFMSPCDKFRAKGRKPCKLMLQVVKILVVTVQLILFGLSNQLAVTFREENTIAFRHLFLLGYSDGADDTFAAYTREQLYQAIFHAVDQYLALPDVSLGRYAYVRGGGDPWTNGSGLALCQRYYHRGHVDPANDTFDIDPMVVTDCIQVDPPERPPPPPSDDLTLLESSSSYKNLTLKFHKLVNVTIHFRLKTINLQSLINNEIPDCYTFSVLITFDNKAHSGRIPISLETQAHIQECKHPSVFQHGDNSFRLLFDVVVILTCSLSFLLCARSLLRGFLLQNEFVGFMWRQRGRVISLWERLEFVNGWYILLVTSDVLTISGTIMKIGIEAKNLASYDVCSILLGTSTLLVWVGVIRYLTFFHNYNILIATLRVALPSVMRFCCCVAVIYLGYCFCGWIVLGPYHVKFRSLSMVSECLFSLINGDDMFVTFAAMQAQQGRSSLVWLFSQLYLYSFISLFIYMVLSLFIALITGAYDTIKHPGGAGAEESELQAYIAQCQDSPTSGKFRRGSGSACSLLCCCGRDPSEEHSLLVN
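Calcium fluorescence in TRPML1-DL cells induced overnight with Tet: a 110 s read after compound pin addition, then a 110 s antagonist read after challenge with 54-4 at 4 uM final (EC80).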
Six1-Eya2 blk: blocks human Six1 binding to Eya2; AlphaScreen GST-Six1/His-Eya2 binding, biochemical; active compounds read low; control for the full effect not named in the record; 360,000 tested, 0.56% active; AID 651725; activity change, % (concentration not given with the values); in the data active = activity change below about -65%; inconclusive = about -30% to -65%; inactive = above about -30%; also: % is scaled to controls: 0 for no effect and ±100 for the full control effect
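Homogeneous AlphaScreen proximity assay pairing GST-Six1 with His-tagged Eya2 (added as 5X mix: 250 nM and 500 nM) in 50 mM Tris pH 8.0, 300 mM NaCl, 1 mM TCEP. Glutathione donor and nickel acceptor beads; 1 h, 37 °C, dark.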
TRPML1 ag: activates the human TRPML1 channel. TRPML1-expressing cells, Ca2+ dye fluorescence, FDSS; host cell line not named in the record; reference of the full effect not given here. activation, % (concentration not given with the values). 410,000 tested, 0.12% active. AID 624414; in the data active = activation above about 50%; inconclusive = about 30% to 50%; inactive = below about 30%; also: 0% is about no effect; the text of the record puts the active cut at 80%
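In this qHTS format, compounds were pin-transferred onto Ca8-dye-loaded TRPML1-DL cells induced with Tet overnight, and intracellular Ca2+ fluorescence was recorded kinetically for 110 s after a 10 s baseline. A subsequent 4uM final 54-4 (EC80) addition followed by a second 110 s read served as the antagonist phase.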
The depositor's hits bear a star; ? = inconclusive; . = not tested or not shown; & = joins results of further samples.

no. | canonical_smiles | TRPV1 potentiator | CtBP-E1A blk | TRPML1 blocker | Six1-Eya2 blk | D2 PAM | TRPML1 ag
1 | Cc1ccc(S(=O)(=O)N(C)CC(=O)NCCc2c[nH]c3ccccc23)cc1 | 28 | 0 | 31 | 6 | -6 | -0.4
2 | O=C(NNc1ccc(F)cc1F)c1c(F)cccc1Cl | 1 | 5 | 14 | 7 | -2 | 2.2
3 | CCN(CC)CCCNC(=O)Cn1cnc2ccc(S(=O)(=O)N3CCC(C)CC3)cc2c1=O | -5 | 0 | 53 | 3 | -3 | 1.0
4 | O=C(CNS(=O)(=O)c1ccc(Br)cc1)NC1CCCC1 | 7 | 12 | 20 | 5 | -15 | 1.3
5 | CC(C)(C)NC(=O)CN1C(=O)c2cccc3cccc1c23 | . | 4 | -13 | 3 | -6 | -0.9
6 | CN(C(=O)c1cccc(NC(=O)Cc2cccc(NC(=O)C3CCN(C(=O)C4CCCCC4)CC3)c2)c1)C1CC1 | . | -24 | -15 | 1 | -1 | 0.6
7 | O=C(O)Cn1c(=O)c2c3c(sc2n(Cc2ccc(F)cc2)c1=O)CCCC3 | 23 | 9 | -5 | 2 | -7 | -0.5
8 | CC1=C(C(=O)N(C(C)C)C(C)C)CC(CC(=O)NCc2cccs2)C(=O)N1Cc1ccccc1 (configuration not stated) | . | 6 | 11 | 5 | 0 | -0.6
9 | COc1ccc(NC(=O)C(=O)NCC(=O)Nc2cc(OC)ccc2OC)cc1 | 3 | 16 | -1 | 3 | -22 | -0.7
10 | O=C(CCc1ccccc1)NNC(=O)COc1ccc([N+](=O)[O-])cc1 | 0 | -1 | 13 | 12 | -1 | 0.6
11 | COc1ccc(Cl)cc1S(=O)(=O)N1CCN=C1Cc1ccccc1 | 0 | 5 | -11 | -9 | -5 | -0.3
12 | CCCC(=O)OCCNc1cc(Sc2nc3ccccc3[nH]2)c2nonc2c1[N+](=O)[O-] | 16 | -10 | -25 | ? | -47 | 3.2
13 | OCc1cnc(SCc2ccccc2)n1Cc1ccccc1 | -1 | 9 | -1 | -4 | -6 | -0.1
14 | C=CCN1C(=O)C2(OCCCO2)c2cccc(C)c21 | 9 | -6 | 8 | 12 | -2 | 1.0
15 | COc1ccc(/C=N\NC(=O)c2ccccc2Br)cc1COc1c(F)c(F)cc(F)c1F | -2 | -6 | 2 | -2 | ? | 3.5

New compounds follow:
no. | canonical_smiles | TRPV1 potentiator | CtBP-E1A blk | TRPML1 blocker | Six1-Eya2 blk | D2 PAM | TRPML1 ag
16 | CC(NC(=O)c1ccco1)c1nc(-c2ccc(C(C)(C)C)cc2)no1 (configuration not stated) | -5 | 2 | 3 | 0 | -12 | 1.3
17 | O=C(Nc1ccccc1C(=O)Nc1ccccc1C(=O)O)c1ccccc1 | 0 | -67* | 1 | -81* | -7 | -0.9
18 | CCc1nnc(NC(=O)CSc2nc(-c3ccccc3)c(-c3ccccc3)o2)s1 | 3 | 7 | -11 | 6 | 1 | -0.7
19 | CC(C)(C)N1CC(c2nc3ccccc3n2Cc2ccc(F)cc2)CC1=O (configuration not stated) | -8 | 9 | 6 | 12 | -17 | -0.6
20 | Cc1ccc2nc(SCC(=O)N3CCC(Cc4ccccc4)CC3)nc(=O)n2c1 | 18 | -4 | -19 | -2 | -7 | 0.8
21 | CCN1C(=O)C(=O)N(CC(=O)Nc2cccc(C(F)(F)F)c2)C1=O | . | -3 | -6 | -11 | -1 | 0.1
22 | Cc1ccc(C(=O)N(CCc2ccccc2)Cc2ccccc2)cc1S(=O)(=O)N1CCCCC1 | -7 | 8 | 72 | -8 | -14 | 1.3
23 | O=C(CN1C(=O)C2C3C=CC(C3)C2C1=O)OCC(=O)c1ccc([N+](=O)[O-])cc1 (configuration not stated) | 14 | -2 | 12 | 0 | 9 | 0.0
24 | CCN(CC)S(=O)(=O)c1ccc(Cl)c(C(=O)NCC2CCCO2)c1 (configuration not stated) | 20 | 4 | -1 | 5 | -3 | 0.9
25 | O=C(N/N=C/c1cccnc1)c1cccc(NC(=O)c2cccc(Br)c2)c1 | 4 | -23 | -22 | -19 | -8 | 0.5
26 | COc1ccccc1CNC(=O)COC(=O)Cc1c[nH]c2ccccc12 | -3 | 0 | -16 | -1 | -24 | -0.2
27 | CC(=O)c1cnc(Oc2cc(Cl)ccc2Cl)nc1C | 5 | 12 | -4 | 7 | -1 | 3.1
28 | COc1cccc(C(=O)Oc2ccc(/C=N/Nc3ccc(C(=O)O)cc3)cc2OC)c1 | -3 | -6 | -5 | -7 | -1 | -0.9
29 | O=C(/C=C/c1cccs1)N1CCC2(CC1)Oc1ccc(F)cc1C(=O)C21CC(c2ccccc2)=NO1 (configuration not stated) | -3 | -4 | 0 | -4 | -1 | 0.4
30 | Cc1cc(C(=O)Cn2nc(C(=O)O)c3ccccc3c2=O)c(C)n1C1CC1 | 0 | -22 | 0 | -6 | -4 | 1.2

Next compounds.
no. | canonical_smiles | TRPV1 potentiator | CtBP-E1A blk | TRPML1 blocker | Six1-Eya2 blk | D2 PAM | TRPML1 ag
31 | O=C(Nc1cc(Cl)ccc1-n1cncn1)c1ccco1 | . | -1 | -7 | 6 | -21 | -0.4
32 | CCc1nc2c(OCc3ccc(C(F)(F)F)cc3)cccn2c1N(C)C(=O)CC(C)C | . | 2 | . | -3 | -2 | -0.4
33 | CC(=O)c1ccc(NC(=O)CSc2ccc3nnc(-c4cccnc4)n3n2)cc1 | -17 | -2 | 14 | 0 | -2 | 0.6
34 | O=C(NCCCN1CCOCC1)c1ccc(NS(=O)(=O)c2ccccc2)cc1 | 4 | 7 | 26 | 0 | -6 | 0.3
35 | COC(=O)c1cccc(CSc2nnc(-c3ccco3)n2-c2ccccc2)c1 | -9 | -1 | 0 | -1 | -9 | 2.3
36 | Cc1noc(/C=C/Nc2ccc(F)cc2F)c1[N+](=O)[O-] | -6 | 0 | -2 | 6 | -8 | -0.1
37 | CCCC(=O)n1nc(-c2ccco2)nc1N | 6 | 2 | 28 | -1 | 2 | -0.6
38 | COc1cccc(C(=O)N2CCN(S(=O)(=O)Cc3ccccc3)CC2)c1OC | 7 | -12 | -15 | 2 | -11 | 0.8
39 | CCOC(=O)c1nn(-c2ccc(OCC)cc2)c2nc(-c3ccco3)c(C#N)c(=O)n12 | 12 | 3 | -16 | 26 | -14 | 2.2
40 | Cc1ccccc1NC(=O)COC(=O)CCC(=O)c1cccs1 | 2 | 0 | 26 | -3 | -4 | -0.4
41 | C=CCn1c(C)cc(C(=O)CSc2nnc(NCc3ccccc3)s2)c1C | -11 | -29 | 9 | -28 | -10 | 0.3
42 | O=C(COC(=O)c1cnc(Cl)c(Cl)c1)NCc1ccco1 | 12 | 1 | -9 | -27 | -25 | -1.5
43 | Cc1ccc(NS(=O)(=O)c2c(C)[nH]c(=O)[nH]c2=O)c(C)c1 | -7 | 7 | 1&30 | 5 | 1 | 0.6&-0.1
44 | COc1ccc(NC(=O)CN2C(=O)NC3(CCCC3)C2=O)cc1S(=O)(=O)N1CCCCC1 | 1 | 1 | 3 | 5 | 1 | -0.6
45 | CCOc1ccc(CCNC(=O)COC(=O)c2ccc(F)c(S(=O)(=O)N3CCOCC3)c2)cc1OCC | 1 | 1 | 8 | -4 | -4 | 1.2

Complete entries from above. Order of values: TRPV1 potentiator, CtBP-E1A blk, TRPML1 blocker, Six1-Eya2 blk, D2 PAM, TRPML1 ag
O=C(CN1C(=O)C2C3C=CC(C3)C2C1=O)OCC(=O)c1ccc([N+](=O)[O-])cc1 (configuration not stated) in the list: 14, -2, 12, 0, 9, 0.0
O=C(COC(=O)c1cnc(Cl)c(Cl)c1)NCc1ccco1 in the list: 12, 1, -9, -27, -25, -1.5
O=C(CNS(=O)(=O)c1ccc(Br)cc1)NC1CCCC1 in the list: 7, 12, 20, 5, -15, 1.3
COc1ccc(NC(=O)C(=O)NCC(=O)Nc2cc(OC)ccc2OC)cc1 in the list: 3, 16, -1, 3, -22, -0.7
O=C(Nc1ccccc1C(=O)Nc1ccccc1C(=O)O)c1ccccc1 in the list: 0, -67*, 1, -81*, -7, -0.9

More records.
no. | canonical_smiles | TRPV1 potentiator | CtBP-E1A blk | TRPML1 blocker | Six1-Eya2 blk | D2 PAM | TRPML1 ag
46 | CCOc1ccc(C2N(c3ccc(F)cc3)C(=O)C3CCCN32)cc1 (configuration not stated) | . | 3 | 15 | -1 | -1 | 0.4
47 | O=C(CSc1nc(-c2ccc(F)cc2)cs1)N1CCOCC1 | -4 | 3 | 19 | 4 | 2 | 0.2
48 | CCCn1c(SCC(=O)N2c3ccccc3CC2C)n[nH]c1=O (configuration not stated) | -7 | -1 | -9 | 2 | -5 | 0.0
49 | COc1cccc(CC(=O)Nc2ccccc2N2CCCC2)c1 | -2 | -5 | -19 | 2 | -2 | 0.5
50 | Cc1cc(OCCn2c(CCNC(=O)C3CCCCC3)nc3ccccc32)ccc1Cl | -13 | . | 24 | . | . | 6.5
51 | O=C(CCc1ccccc1)NNC(=O)C12CC3CC(CC(C3)C1)C2 | 12 | -12 | -5 | -1 | -8 | -0.2
52 | CC(=O)Nc1sc(N/N=C/c2ccc(O)cc2)nc1-c1ccc(C)cc1 | -10 | -22 | 30 | -14 | 4 | -0.1
53 | CCOC(=O)c1c(C)n(C)c2ccc(OC)c(NC(=O)CCN3CCC(Cc4ccccc4)CC3)c12 | 7 | . | 11 | 4 | -16 | 3.1
54 | COc1ccc(C(CCN2CCOCC2)c2c(OC)cc(OC)c3ccc(=O)oc23)cc1 (configuration not stated) | . | 0 | 4 | -4 | -20 | -0.5
55 | Cc1cc2[nH]c3c4ccccc4nc(C)c3c2cc1C | . | -8 | 8 | -16 | 5 | 1.7
56 | COc1cc(/C=N/NC(=O)c2cccnc2)ccc1OCC(=O)Nc1ccccc1Cl | 10 | -3 | 8 | 2 | 11 | -0.9
57 | Cc1ccnc(N2CCN(C(=O)CSc3nc4ccccc4nc3N3CCCCC3)CC2)c1 | -26 | -4 | -12 | -5 | 9 | 1.9
58 | COc1ccccc1CN1C(=O)CNC1=S | -15 | . | -9 | 5 | -9 | 0.9
59 | O=C(CCSc1ccc(Cl)cc1)NN=C1CCCCCC1 | -20 | 0 | 18 | -3 | -4 | 0.4
60 | CC(NCc1ccc2c(c1)OCO2)C(=O)NC1CCCCC1 (configuration not stated) | 7 | 6 | 6 | -2 | -1 | 1.7
61 | CN(CC(=O)Nc1ccc(F)cc1[N+](=O)[O-])Cc1ccccc1 | -16 | -7 | 10 | ? | -3 | -0.8
62 | CS(=O)(=O)NCCSCc1c(F)cccc1Cl | -12 | 5 | -13 | 2 | 0 | -1.4

3 entries out of the list, ordered by heavy-atom count, smallest number first.
no. | canonical_smiles | TRPV1 potentiator | CtBP-E1A blk | TRPML1 blocker | Six1-Eya2 blk | D2 PAM | TRPML1 ag
49 | COc1cccc(CC(=O)Nc2ccccc2N2CCCC2)c1 | -2 | -5 | -19 | 2 | -2 | 0.5
46 | CCOc1ccc(C2N(c3ccc(F)cc3)C(=O)C3CCCN32)cc1 (configuration not stated) | . | 3 | 15 | -1 | -1 | 0.4
54 | COc1ccc(C(CCN2CCOCC2)c2c(OC)cc(OC)c3ccc(=O)oc23)cc1 (configuration not stated) | . | 0 | 4 | -4 | -20 | -0.5

Random draw from the library; 0.95% or so of the library scored in one or more.
